Assay outcomes (PubChem)
RanGTP-Impb inh – disruptors of Ran-importin-beta complex formation – biochemical, FRET, CFP-Ran, YFP-importin-beta, homogeneous, primary screen; cell-free CFP-Ran/YFP-importin-beta FRET ratio; inhibition, % (test concentration not listed); actives 1.1% (n = 300,000); AID 2216;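 active = most replicates above 15%; inconclusive = exactly half above 15%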;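 note: 0% = DMSO wells and 100% = Ran loaded with GDP instead of GTP; wells of about 40 µL received 100 nL stock; the first replicate is given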
T cruzi inh – T. cruzi replication inhibition; T. cruzi beta-gal in NIH3T3, luminescence, 90 h; inhibition, % (concentration not given with the values); actives 1.4% (n = 300,000); AID 1885;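 active = mean inhibition across valid replicates above about 55%, limit read from the data; inconclusive = mean below that limit but half or more replicates reach it; inactive = mean below it, under half of replicates reach it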;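 note: signal also drops with host cell toxicity which is not excluded here; 0% = plate median of DMSO wells and 100% = zero luminescence signal; higher percent means less beta-gal luminescence so fewer parasites; stock transfer was 50 nL into about 50 µL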
Calb FLC – C. albicans growth modulation with fluconazole | actives 0.57% (n = 300,000) | growth inhibition, % (concentration not given with the values) | C. albicans CaCi-2 (fluconazole-resistant clinical isolate) + fluconazole, Alamar Blue growth, 48 h | AID 1979;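 active = most replicates above 75%; inconclusive = exactly half above 75%; inactive = most below 75%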;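 note: all wells also contain fluconazole at 8 µg/ml as a sub-toxic cotreatment; 0% = median of DMSO wells and 100% = median of geldanamycin control wells; wells of about 8 µL received 7.5 nL stock; the first replicate is given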
Vif TR-FRET – HIV-1 Vif–A3G interaction blockers – biochemical, TR-FRET, GST-Vif 1-94, biotin-A3G peptide, dose response retest, primary screen (AID 1117319) | actives 0.57% (n = 260,000) | one-dose inhibition, %; IC50 in µM for titrated hits | TR-FRET GST-Vif / biotin-A3G peptide binding; higher % means a stronger effect; test concentration not given here; strong numbers were not always called active;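 active = above the screen mean plus three standard deviations and confirmed in dose response; inconclusive = results disagree or hit not tested in dose response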;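 note: Vif residues 1-94 fused to GST binding biotinylated APOBEC3G peptide 110-148; 0% = full assay without inhibitor and 100% = GST in place of GST-Vif; retest series ran down from 100 µM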
LANA-H2B inh – blocks KSHV LANA binding to histone H2A/H2B | cell-free LANA-H2A/H2B peptide, fluorescence polarization | inhibition, % (no concentration beside the values) | actives 0.6% (n = 320,000); in the data active = inhibition mostly above about 10%, no sharp cut-off; inactive = mostly below about 6.7%;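 note: stock transfer was 7.5 nL into about 10 µL; 0% = median of vehicle wells and 100% = median of positive control wells; one replicate is shown; the record names a cut of 25% in any replicate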
Target sequence (Q9QR71 whole entry, looked up): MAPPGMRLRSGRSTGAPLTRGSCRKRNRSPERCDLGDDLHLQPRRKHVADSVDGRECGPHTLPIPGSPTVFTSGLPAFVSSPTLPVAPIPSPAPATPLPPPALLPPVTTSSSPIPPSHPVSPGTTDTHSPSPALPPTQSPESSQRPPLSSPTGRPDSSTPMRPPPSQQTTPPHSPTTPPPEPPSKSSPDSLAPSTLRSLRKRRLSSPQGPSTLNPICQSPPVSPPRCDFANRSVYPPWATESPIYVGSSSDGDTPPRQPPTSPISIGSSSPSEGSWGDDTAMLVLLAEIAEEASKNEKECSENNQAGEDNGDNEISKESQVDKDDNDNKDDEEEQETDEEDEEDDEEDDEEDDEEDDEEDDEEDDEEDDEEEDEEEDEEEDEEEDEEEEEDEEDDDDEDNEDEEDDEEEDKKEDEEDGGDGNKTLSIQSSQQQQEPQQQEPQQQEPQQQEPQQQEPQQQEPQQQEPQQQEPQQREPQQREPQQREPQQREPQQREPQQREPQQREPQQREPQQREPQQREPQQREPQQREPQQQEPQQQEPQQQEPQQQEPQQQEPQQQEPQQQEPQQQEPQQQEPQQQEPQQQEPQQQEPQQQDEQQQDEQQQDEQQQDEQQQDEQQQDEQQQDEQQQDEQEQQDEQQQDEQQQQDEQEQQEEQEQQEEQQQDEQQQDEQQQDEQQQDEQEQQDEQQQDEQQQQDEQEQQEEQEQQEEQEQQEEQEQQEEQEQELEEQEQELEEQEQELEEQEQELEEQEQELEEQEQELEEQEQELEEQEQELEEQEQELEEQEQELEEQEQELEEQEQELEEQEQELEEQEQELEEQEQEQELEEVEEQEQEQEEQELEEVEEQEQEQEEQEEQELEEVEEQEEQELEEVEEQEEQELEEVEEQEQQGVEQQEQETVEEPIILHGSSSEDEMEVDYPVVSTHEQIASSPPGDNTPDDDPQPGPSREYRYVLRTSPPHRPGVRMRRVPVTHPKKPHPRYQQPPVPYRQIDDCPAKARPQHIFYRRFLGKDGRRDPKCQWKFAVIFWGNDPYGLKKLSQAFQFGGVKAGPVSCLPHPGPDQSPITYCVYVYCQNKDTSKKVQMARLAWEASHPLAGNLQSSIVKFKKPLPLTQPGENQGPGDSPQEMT
A1 inh – inhibitors of the anti-apoptotic protein A1, read as caspase activation | caspase activation, % (no concentration beside the values) | actives 0.066% (n = 330,000) | MEF A1-2A-BIM cells, Caspase-Glo 3/7 luminescence, 3 h; percent of clofoctol response, vehicle zero;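 active = over half of replicate activation scores above 10%, or exactly half above 10 with the replicate mean above 10; inconclusive = replicate mean below 10 yet half the replicates above 10; inactive = over half of replicates below 10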;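 note: wells of about 30 µL received 50 nL stock; many hits fall short of the cut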
MLL AF4-AF9 inh – inhibitors of human MLL-AF4/AF9 interaction. P42568. AlphaScreen, biotin-AF4 peptide binding to FLAG-AF9. inhibition, % at 10 µM. actives 0.47% (n = 350,000). AID 651704;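 active = every replicate reaching a set inhibition limit, whatever the replicate mean, cut at about 25% in these data; inconclusive = mean inhibition reaches that limit but some replicates miss it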;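 note: 0% = plate neutral control median and 100% = total signal loss; the record names both 10 and 1 µM as test concentration; the first replicate is given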
Beta cell apopt – blocks beta cell apoptosis | INS-1E cytokine-induced death, ATP luminescence, 48 h; percent of positive-control rescue, neutral wells zero | protection from apoptosis, % (test concentration not listed) | actives 0.8% (n = 300,000) | AID 435005;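 active = all replicates at 75% or more, or half of them and the mean; inconclusive = half reach 75% but not the mean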;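 note: 0% = cytokine-treated negative control wells and 100% = positive control rescue; higher means more ATP so stronger rescue from cytokine killing; wells of about 40 µL received 100 nL stock; the first replicate is given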
* marks the source's active call; other numbers are inactive results; ? = inconclusive; nt = not tested or not shown; & = joins results of further samples.

Results follow in this order: LANA-H2B inh	Vif TR-FRET	A1 inh	Calb FLC	MLL AF4-AF9 inh	Beta cell apopt	RanGTP-Impb inh	T cruzi inh
> Cc1nnc(SC(C)C(=O)Nc2ccc(S(=O)(=O)N3CCCCC3)cc2)s1 (stereo not given)
    -4.9	1%	-1.0	1	nt	-8	-1.2	19
> Cn1c(SCC(=O)NC2CCCCC2)nnc1-c1ccncc1
    -1.3	-6%	0.3	-8	2.7	-1	2.8	-9
> CC(C)[C@H](N)C(=O)OCCOCn1cnc2c(=O)[nH]c(N)nc21
    1.4&-4.6	nt	2.1&0.8	1	-1.2&-1.2	2	-4.2	-32
> Cc1cc(NC(=O)CN2CCCC2c2nc3ccccc3s2)no1 (stereo not given)
    15*	3%	1.3	-3	nt	1	?	13
> Cc1ccnc(NC(=O)c2cccc(S(=O)(=O)NCc3ccccc3)c2)c1
    -3.9	-2%	-1.2	-4	3.7	-12	-3.5	-1
> COC(=O)/C(=C\Nc1ccc(OC)cc1)NC(=O)c1ccc(Cl)cc1Cl
    0.8	-7%	1.2	3	nt	-1	3.8	-11
> O=c1[nH]c(CSc2nc3ccccc3[nH]2)nc2c1cnn2-c1ccccc1
    -2.3	nt	-1.9	-5	-2.4	0	7.2	-10
> CC1(C)Cc2c(cnn2-c2ccccc2)C(NC(=O)CCCN2CCCCC2=O)C1 (stereo not given)
    1.7	34%	2.1	-2	0.7	-1	2.6	18
> CCN(CC)CCNC(=O)CNC(=O)c1nn(-c2ccc(OC)c(OC)c2)c(=O)c2ccccc12
    -4.8	-3%	0.5	16	2.7	-1	5.7	-7
> COc1cc(NC(=O)c2cccs2)ccc1NC(=O)c1cc2ccccc2o1
    -0.1	-6%	?	39	0.5	15	-3.5	4
> CCCNC(=O)C1CCN(c2nc(C)cc(C)n2)CC1
    0.9	12%	0.3	5	nt	-1	-2.1	-10
> COc1ccc(NC(=O)Nc2ccc(F)c(Cl)c2)cc1
    -10	1%	-4.7	-5	nt	9	-0.5	-18
> Cc1c(S(=O)(=O)Nc2ccc3c(c2)OCCO3)cnn1C
    2.1	-12%	0.5	-4	-2.9	-4	?	3
> O=C(Nc1nnc(C2CC2)s1)c1cc(Cl)sc1Cl
    -1.9	nt	-2.6	0	-1.2	8	-1.6	-8
> Cc1nc(N2CCOCC2)nc(N2CCC(C)CC2)c1[N+](=O)[O-]
    0.6	0%	0.8	-18	6.7	4	2.1	12
> COc1ccccc1OC(=O)CCN1c2ccccc2Sc2ccccc21
    -2.3	17%	0.2	0	nt	6	2.3	1
> COc1ccc(NC(=S)Nc2ccccc2)cc1
    1.5&1.4	1%	-0.1&1.5	2&1	-1.3&0.9	-7	-2.9&0.1	-17&-1
> O=C(c1ccccc1NS(=O)(=O)c1cccs1)N1CCCC1
    1.8	-3%	-0.1	5	nt	-2	0.0	-15
> CC(C)C[C@H](NC(=O)c1[nH]cnc1C(=O)N[C@@H](C)C(=O)OCc1ccccc1)C(=O)OC(C)(C)C
    -3.8	nt	?	-1	0.0	-6	0.5	9
> O=C(CCN1C(=O)COc2ccccc21)NCCN1CCc2ccccc2C1
    -4.1	-3%	0.0	-3	2.2	1	7.9	-6
> NC(=O)c1cc(Cc2ccccc2)sc1NC(=O)c1ccco1
    11	5%	-0.1	-8	-13	2	-2.7	-7
> COc1ccc(CNC(=O)COC(=O)CCC(=O)c2cccs2)cc1
    11	1%	-0.4	-3	-10	-7	2.7	1
> Cc1noc(C)c1CSCC(=O)Nc1nc2ccc(S(C)(=O)=O)cc2s1
    16	nt	0.5	0	0.7	3	-8.2	-10
> COc1ccc(-n2ncc(N(C)n3cccc3)c(Cl)c2=O)cc1
    -1.0	2%	0.5	-8	nt	-6	2.3	nt
> Cc1ccc(-c2nnc(SCC#CCOC(=O)c3cccs3)o2)cc1
    -1.0	-5%	-1.8	-12	nt	-5	-3.5	1
> CNC(=O)/C(C#N)=C\c1ccc(CNS(=O)(=O)c2ccccc2)o1
    -8.0	nt	0.5	0	nt	-6	2.6	-11
> COc1ccc(N2CCN(CC(=O)N3c4ccccc4CC3C)CC2)cc1 (stereo not given)
    -2.8	1%	0.6	-4	5.5	-5	3.2	-5
> Cc1ccccc1NC(=O)COC(=O)CN1C(=O)NC(C)(C)C1=O
    4.1	3%	-1.1	6	nt	-4	-7.9	-3
> COc1ccc(OC)c(CC(=O)NC(c2ccccc2)c2ccccc2)c1
    -1.5	nt	-0.4	15	-3.9	-3	4.7	1
> O=S(=O)(NC1CCCCC1Oc1ccccc1)c1ccc(Cl)cc1 (stereo not given)
    1.0	2%	-0.3	-14	-2.5	2	1.6	16
> CC1CC(C)(C)NC(=S)N1CCC(=O)NCCc1ccc(Cl)cc1 (stereo not given)
    -2.2	1%	-1.3	6	1.6	-6	2.1	-16
> COc1ccc(-c2ccc3oc(-c4ccsc4)cc3c2)cc1
    5.9	nt	1.2	-4	-2.7	-4	-3.4	-31
> Nc1cc(-c2ccc(Br)cc2)nc2cc(-c3ccccc3)nn12
    4.3	7%	-0.2	11	-17	-7	4.3	35
> C=CCn1cnc2c(c1=O)c1nc3ccccc3nc1n2/N=C/c1cccc(OC)c1OC
    0.5	nt	-0.8	nt	6.5	2	nt	nt
> O=C(O)c1ccccc1C(=O)NC1CCCc2ccccc21 (stereo not given)
    0.7	-5%	-0.4	1	6.5	-2	2.0	-8
> O=C(c1oc(=O)c2ccccc2c1-c1ccccc1)N1CCN(C2CCCCC2)CC1
    -3.6	6%	0.5	-9	8.1	-3	-0.8	4
> CC(=O)c1ccc(-c2ccc(C(=O)NCC(c3ccco3)N(C)C)o2)cc1 (stereo not given)
    2.2	1%	-1.9	nt	2.5	5	nt	nt
> Cc1ccccc1NC(=S)c1ccc2ccccc2n1
    6.6	nt	-0.1	-4	6.8	11	-1.0	-14
> O=C(NCC(c1ccco1)N1CCCC1)c1cccc(S(=O)(=O)N2CCOCC2)c1 (stereo not given)
    0.5	nt	0.2	nt	-3.3	-7	nt	nt
> CCOC(=O)N1CCC2(CC1)C(C#N)=C(N)Oc1n[nH]c(CSc3ccc(C)cc3)c12
    5.9	9%	0.1	6	nt	1	4.1	4
> COc1ccccc1C(=O)NCCCN1CCCC1=O
    -1.2	17%	0.9	23	1.9	-6	2.3	-3
> Cc1cc(C)c(-c2cc(NC(=O)CSc3n[nH]c(N)n3)n(-c3ccccc3)n2)cc1C
    -7.0	-3%	0.1	52	nt	-4	6.0	21
> C#CC(C)(C)NC(=S)NC1CC2C=CC1C2 (stereo not given)
    -0.1	-9%	0.4	-6	-16	nt	1.6	4
> COc1cc(NC(=O)c2ccco2)ccc1NC(=O)C(C)C
    7.2	-5%	0.5	15	nt	0	-0.5	-3
> COC(=O)C(NC(=O)c1cccnc1Cl)C(C)C (stereo not given)
    -6.8	-2%	0.6	-3	-7.1	-1	0.5	-3
> Cc1ccc(-c2nn(CCC(=O)NC(C)C)c(=O)c3ccccc23)cc1
    -0.9	-2%	1.3	-1	-2.2	1	4.5	-15
> CCc1noc(C)c1C(=O)NNC(=O)COc1ccc(C)c(C)c1
    0.9	9%	-0.3	5	-1.5	-2	nt	-3
> O=C(NCc1csc(-c2cccs2)n1)Nc1cccc(Cl)c1
    -7.7	-30%	0.1	-10	nt	-1	-3.8	1
> O=C(N/N=C/c1ccco1)c1cc(C2CC2)[nH]n1
    -4.7	3%	-2.2	4	18	nt	2.3	-8
> CC1Cc2cc(-c3csc(N)n3)ccc2O1 (stereo not given)
    1.6	nt	-4.4	-1	1.9	-1	0.4	2
> COc1ccc(Cn2c(=O)[nH]c3cc(C(=O)NCc4ccc5c(c4)OCO5)ccc3c2=O)cc1
    -0.6	3%	0.5	-9	nt	5	4.1	14
> Cc1ccc(OCC(COCc2ccccc2)NC(C)C)cc1 (stereo not given)
    3.3	nt	0.1	0	-1.7	-4	-0.5	12
> CCOc1ccc2nc(SCC(=O)Nc3ccc4c(c3)OCO4)sc2c1
    1.8	28%	0.1	-17	-3.3	13	-0.5	-7
> Oc1ccc(-c2csc(Nc3ccccn3)n2)cc1O
    -0.7	26%	-2.0	-11	21	14	-0.9	-18
> O=C(NCC1CCCO1)c1cnn2c1NC(c1ccccc1)CC2C(F)(F)F (stereo not given)
    -0.4	17%	1.6	-6	nt	-3	-2.1	-16
> CCOC(=O)C1=C(CCc2ccccc2)NC(=O)NC1c1ccc2ccccc2c1 (stereo not given)
    -3.5	nt	0.5	-1	-27	94*	-6.8	40
> Cc1ccc(NC(=O)COC(=O)c2ccco2)cc1
    1.0	-2%	0.3	?	-8.5	1	-1.1	3
> CCN(CC(=O)Nc1c(F)cccc1F)C(=O)c1cccc(S(=O)(=O)N2CCc3ccccc3C2)c1
    -4.1	-3%	0.2	3	1.0	2	1.8	1
> CC(C)Sc1ncnc2c1cnn2-c1ccccc1
    -5.4	nt	-6.5	-36	-0.2	0	-6.9	9
> CC(=O)O[C@H]1CC(=O)OC(C)(C)C2CC(=O)[C@]3(C)C(CC[C@@](C)([C@@H](O[C@@H]4O[C@H](CO)[C@@H](O)[C@H](O)[C@H]4O)c4ccoc4)[C@@]34O[C@@H]4C(=O)O)[C@]21C (stereo not given in full)
    1.0	nt	0.7	nt	-1.2	-2	nt	nt

Sorted by the number under LANA-H2B inh (rising): 3 from the list above.
| canonical_smiles | LANA-H2B inh | Vif TR-FRET | MLL AF4-AF9 inh | RanGTP-Impb inh |
| --- | --- | --- | --- | --- |
| CC1CC(C)(C)NC(=S)N1CCC(=O)NCCc1ccc(Cl)cc1 (stereo not given) | -2.2 | 1% | 1.6 | 2.1 |
| C=CCn1cnc2c(c1=O)c1nc3ccccc3nc1n2/N=C/c1cccc(OC)c1OC | 0.5 | nt | 6.5 | nt |
| Cc1ccc(OCC(COCc2ccccc2)NC(C)C)cc1 (stereo not given) | 3.3 | nt | -1.7 | -0.5 |

The list goes on.
Results follow in this order: LANA-H2B inh	Vif TR-FRET	A1 inh	Calb FLC	MLL AF4-AF9 inh	Beta cell apopt	RanGTP-Impb inh	T cruzi inh
> O=S(=O)(c1ccc(Cl)s1)N1CCN(Cc2ccccc2)CC1
    -1.4	64%	-3.4	2	nt	-5	1.9	nt
> Cc1ccc(/C=C2\CCC3=C2OC(N)=C(C#N)C3c2ccc(C)cc2)cc1 (stereo not given)
    -3.5	21%	-0.3	0	nt	4	-81	9
> CCOC(=O)c1c(C)oc2c1c(C(c1cccnc1)N1CCCCC1)c(O)c1ccccc12 (stereo not given)
    1.2	11%	0.1	34	nt	-1	4.4	-60
> CN(C(=O)c1ccccn1)c1nnc(-c2ccccn2)s1
    1.6	16%	-5.2	-2	nt	-8	4.6	-5
> COc1ccc(CNC(=O)CN2C(=O)c3ccc([N+](=O)[O-])cc3C2=O)cc1
    23*	nt	-0.1	-6	-0.4	-3	-2.0	-6
> CC(C)[C@H](Nc1ncnc2c1oc1ccccc12)C(=O)O
    -2.0	-3%	0.8	1	5.3	-1	1.3	-6
